Source: PubChem
BJeLR lethal – MLPCN primary cell-based screen for lethality selective to Ras in HRASV12 cells; actives 0.17% (n = 300,000); inhibition, % (no concentration beside the values); BJeLR (HRASV12) viability, CellTiter-Glo ATP luminescence, 48 h; reference of the scale not given here;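 active means replicate mean above 50%; inconclusive means above 50% but judged a plate artefact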;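 further: 50 nL library stock added to about 25 µL; numbers are from one replicate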
Mtb hypoxia inh – PubChem AID 1159583. M. tuberculosis hypoxia-regulated fluorescent reporter, fluorescence. fluorescence inhibition, % (test concentration not listed). actives 0.1% (n = 300,000);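 active means 35 to 45% if threefold the growth effect, above 45% if 1.5-fold the growth effect; inactive means the rest, general growth blockers included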;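 further: wells of about 50 µL received 100 nL stock; 0% = vehicle wells and 100% = reference inhibitor wells; whole bacteria with a GFP reporter of the hypoxia response; strong numbers were not always called active; many hits fall short of the cut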
Bead autofluor – compound fluorescence in toxin protease inhibitor counterscreen; compound autofluorescence counterscreen, microsphere flow cytometry; active compounds read high; fluorescence intensity (concentration not given with the values); actives 3.1% (n = 360,000); AID 624483;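 active means at least 3 SD above the mean of all compounds, about 16000 in these data; inconclusive means too few beads counted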;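 further: 100 nL of 1 mM stock went into each well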
PrP UTR inh – inhibition of PrP 5' UTR reporter expression | AID 488862, 2010 | cell-based PrP 5' UTR mRNA reporter, plate reader | inhibition, % (test concentration not listed) | actives 0.35% (n = 340,000);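 active means every replicate at 50% or more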;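 further: 0 = median of the neutral control wells; tested in H4 reporter cells; numbers are from one replicate; inactives centre near -14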
Sa RN4220 lethal – growth inhibition of S. aureus RN4220, primary screen, OD600 | inhibition, % (test concentration not listed) | actives 0.33% (n = 330,000) | AID 1259311, 2017 | 16 h;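 active means z-score of -3 or lower and OD600 up to 0.18 on both plates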;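 further: plate controls were untreated cells for no effect and reference antibiotic for full effect; stock transfer was 100 nL into about 80 µL; one replicate is shown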
ugtP null kill – growth inhibition of ugtP-null S. aureus, primary screen, RN4220 ugtP deletion, OD600. AID 1259309, 2017. growth inhibition, % (no concentration beside the values). 16 h; some inactives read as strong as hits. actives 0.54% (n = 330,000);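 active means z-score under -3 and OD600 up to 0.15 on both plates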;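 further: plate controls were untreated wells for no effect and antibiotic for full effect; wells of about 80 µL received 100 nL stock; the first replicate is given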
Mtb hypoxia inh growth – also measured in Mtb hypoxia inh; calls as there; growth inhibition, %; measured here: M. tuberculosis growth (absorbance);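 0% = vehicle and 100% = reference antibiotic; read after six days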
The depositor's hits bear a star; ? = inconclusive; . = not tested or not shown; & = joins results of further samples. Compounds were not picked by outcome, and some 4% of all compounds hit somewhere here.

Order of values – BJeLR lethal, Mtb hypoxia inh, Mtb hypoxia inh growth, Bead autofluor, PrP UTR inh, Sa RN4220 lethal, ugtP null kill
- O=C(CSc1nnc(NC(=O)C2CC2)s1)Nc1ccc(F)cc1
  4, 0, -2, 7031, 9, 6.1, 14
- CN(C)S(=O)(=O)N1CCC(Oc2ccc(C(=O)NCCc3cscn3)cc2)CC1
  -7, 6, 14, 5710, -27, 4.0, 4
- CCCn1c(NC(=O)c2cccc(S(=O)(=O)N3CCCC3)c2)nc2ccccc21
  5, -5, 14, 16663*, 15, -0.5, -33
- COc1ccc(C2C(C(N)=O)=C(C)Nc3nc(-c4cccc(Cl)c4)nn32)cc1OC (stereo unspecified)
  -3, 9, 6, 9703, -23, -1.4, 10
- Cc1ccc(S(=O)(=O)N2CCCCCC2)cc1C(=O)Nc1cccnc1
  -4, 2, -28, 4600, -13, -8.5, -4
- CCN(CC)S(=O)(=O)c1cccc(NC(=O)CN2C(=O)NC3(CCC(C)CC3)C2=O)c1 (stereo unspecified)
  ., 2, 5, 5754, -3, 1.0, 1
- OCCC1CN(Cc2ccc(F)cc2Cl)CCN1CCc1ccccc1 (stereo unspecified)
  -5, 0, -5, 3080, -15, -4.3, 1
- COc1cccc(NC(=O)CSc2nnc(C3CCCCC3)n2N)c1
  ., 2, -5, 7460, -38, 0.7, 2
- CCCCn1c(N)c(N(CC(C)C)C(=O)c2cnccn2)c(=O)[nH]c1=O
  3, -8, 2, ?, -7, 1.1, -1
- CO/N=C\Cc1oc(=O)c(NC(=O)c2ccccc2)cc1C(=O)OC
  -5, ., ., 2804, -12, ., .
- C=CCN=C(NC#N)SCC(=O)NCc1ccccc1
  0, ., ., 4977, -16, -2.8, 7
- CCc1ccc(N2C(=O)NC(=O)/C(=C/c3ccsc3)C2=O)cc1
  0, 3, 1, ., ., 0.1, 2
- COc1ccc(/C=C(/Sc2nnc(-c3ccc(Cl)cc3)o2)C(=O)O)cc1
  -1, 19, 11, 4503, -9, 9.1, 0
- CCOC(=O)c1c(NC(=O)c2ccccc2C)sc2c1CC(C)(C)OC2
  5, ., ., 4208, 1, -2.7, 47
- Cc1ccc2nc(-c3ccc(NC(=O)C(C)N4C(=O)c5ccccc5C4=O)cc3)sc2c1 (stereo unspecified)
  -11, 10, 9, 2535, -64, 2.5, 0
- CC(C)Oc1ccc(CNC(=O)CCC(=O)N2CCSc3ccccc32)cc1
  -1, 5, 3, 5722, -17, 5.2, 6
- CCOC(=O)CNC(=O)C1c2cc(OC)c(OC)cc2C(=O)N(C)C1c1ccccc1F (stereo unspecified)
  ., 9, 16, 3859, -18, 1.0, -4
- Cc1cc(C)n(CC(=O)c2cccc(N)c2)n1
  5, 11, 14, 3376, 3, 6.4, 3
- COCCCNC(=O)C(F)(F)C(F)(F)C(=O)NCCCOC
  0, 8, 6, ., -4, 3.6, -1
- COc1ccc(C2=NOC(C(=O)NCc3ccccc3)C2)cc1 (stereo unspecified)
  5, 18, 16, 7990, -14, -0.6, 6
- COC(=O)c1ccc(COc2ncnc3ccccc23)o1
  1, 16, 14, 5587, 3, -3.0, 2
- O=C(Nn1c(SCc2ccccc2F)nc2ccsc2c1=O)c1ccccc1
  -7, 3, -1, 8587, -24, 65, 37
- CCOC(=O)/C(C#N)=C\c1cccnc1
  4, 8, 6, 4461, 2, 0.8, 5
- CCOC(=O)c1sc(NC(=O)c2ccc(OC(C)=O)cc2)nc1C
  ., -3, 5, 4434, -30, -0.7, 0
- CCC(=O)c1cn(CC(=O)NCc2cccnc2)c2ccccc12
  -8, 3, 13, 5867, -25, 3.1, 9
- COC(=O)c1ccc(C(=O)OC)c(NC(=S)N2CCC(N3CCCCC3)CC2)c1
  -9, 4, -2, 8834, -19, -0.1, -6
- CCCCNC(=O)/C=C/c1ccc(OC)c(Br)c1
  5, 7, 8, 11524, -30, 3.6, 11
- COc1ccc(C(CNC(=O)c2cccc(S(=O)(=O)Nc3ccccc3OC)c2)N2CCCCC2)cc1 (stereo unspecified)
  ., -1, 2, 7054, -6, -2.5, 4
- Cc1nc(C(=O)N2CCCC(C(=O)c3ccc(Cl)cc3)C2)cs1 (stereo unspecified)
  -4, 11, 8, 3550, -19, 3.3, -1
- CCN(CC)S(=O)(=O)c1ccc2c(c1)nc(SCC(=O)N(C)C1CCS(=O)(=O)C1)n2CC (stereo unspecified)
  8, 2, -5, 6148, -15, 1.7, -3
- CS(=O)(=O)Nc1ccccc1N=C(c1ccccc1)c1ccccc1
  -11, 9, -4, 3509, -44, 4.6, -1
- Fc1cccc(CN(C2=NCCN2)c2c(Cl)cccc2Cl)c1
  ., 3, -2, 4160, -14, 8.4, 4
- COc1ccc(Oc2nc(-c3ccccc3)ncc2C(=O)O)cc1
  -4, 4, 1, 4144, -12, 4.7, -3
- COC(=O)c1ccccc1NC(=O)CCCn1nc([N+](=O)[O-])cc1C
  10, 12, -3, 4316, -31, 4.7, 2
- COc1cccc(NC(=S)N2CCN(C)CC2)c1
  5, 3, -4, 2986, -19, 3.3, 9
- O=C(CNC(=O)c1ccc(Cl)cc1)c1ccc(Br)cc1
  6, 11, 3, 3940, -20, 4.4, 4
- CCCNc1c(NS(=O)(=O)c2ccc(C)cc2C)c(=O)oc2ccccc12
  15, -14, -8, 5901, 1, 1.8, 3
- Cc1ccc(C(=O)NCC(=O)NN=Cc2cccs2)cc1[N+](=O)[O-]
  ., 17, -1, ., ., 7.3, 5
- CC(=O)CSc1cc(-c2ccccc2)nc2ncnn12
  6, 9, 2, 3553, -23, 5.7, 12
- CCOC(=O)CNS(=O)(=O)c1ccc2c3c(cccc13)C(=O)N2CC
  0, 12, 11, 3348, -29, 1.7, 3

3 structures already listed, arranged by molecular weight, low to high.
Order of values – BJeLR lethal, Mtb hypoxia inh, Mtb hypoxia inh growth, Bead autofluor, PrP UTR inh, Sa RN4220 lethal, ugtP null kill
- Cc1ccc(C(=O)NCC(=O)NN=Cc2cccs2)cc1[N+](=O)[O-]
  ., 17, -1, ., ., 7.3, 5
- Cc1nc(C(=O)N2CCCC(C(=O)c3ccc(Cl)cc3)C2)cs1 (stereo unspecified)
  -4, 11, 8, 3550, -19, 3.3, -1
- O=C(CNC(=O)c1ccc(Cl)cc1)c1ccc(Br)cc1
  6, 11, 3, 3940, -20, 4.4, 4

Later entries.
Order of values – BJeLR lethal, Mtb hypoxia inh, Mtb hypoxia inh growth, Bead autofluor, PrP UTR inh, Sa RN4220 lethal, ugtP null kill
- Fc1ccc(N/N=C/c2ccncc2)c(F)c1
  -3, ., ., 2473, -30, ., .
- O=C(C1CCC(CNS(=O)(=O)c2cccs2)CC1)N1CCN(c2ccc(F)cc2)CC1 (stereo unspecified)
  -2, -7, -7, 4698, -4, 8.2, 0
- N#Cc1ccccc1CSc1ccccn1
  23, 8, 2, 6664, 1, 0.9, -3
- Cc1ccccc1C(=O)Nc1cccc(C(=O)NN=Cc2ccccn2)c1
  ., 16, 2, ., ., 1.7, 5
- N#Cc1ccc(OCC(=O)OCC(=O)Nc2cc(C(F)(F)F)ccc2N2CCOCC2)cc1
  1, 2, 7, 2533, -28, 0.4, -2
- CC[C@@H]1C/C=C\Cc2ccccc2[C@@H](C(=O)C[C@H](O)CC(C)=O)OC1=O
  ., 10, 5, 3555, -8, 1.9, 3
- Cc1ccc(S(=O)(=O)NCCNC(=O)c2cc(OCC(F)(F)F)ccc2OCC(F)(F)F)cc1
  3, 8, 7, 8087, -21, 3.0, -1
- COc1ccc(/C=C/C(=O)NC(=S)NNC(=O)c2cnccn2)cc1
  12, ., ., 4617, 13, ., .
- Cn1c(SCC(N)=O)nnc1-c1ccc(S(=O)(=O)N2CCCC2)cc1
  -6, -6, 2, 3498, -37, 3.8, 10
- Cc1cc(C)c(OCC(=O)Nc2nnc(C3CC3)s2)c(C)c1
  ., -10, 11, ?, 1, -1.5, -1
- CC1CCN(C(=O)N[C@@H](Cc2ccccc2)C(=O)O)CC1
  -5, 6, 1, 3448, -4, -13, -2
- COc1ccc(C(CCN)c2ccc3c(c2)OCO3)cc1 (stereo unspecified)
  0, 5, 5, 4561, -63, 3.6, 6
- CN(C)P1(N(C)C)=Nc2c(c(N)nn2C)C(c2ccccc2)=N1
  -3, 7&2, 5&7, 2913&11093, -23&-34, 5.0&2.5, 12&1
- CC(=O)NC1(NC(C)=O)CCN(C)CC1
  10, 6, -14, 3537, -2, -2.5, 0
- COC(=O)c1ccc(CO/N=C2\CCCc3nonc32)cc1
  -12, ., ., 3423, -67, ., .
- CCC(C)(C)n1nnnc1C(C(C)C)N(CCCO)Cc1cc2cc(C)ccc2[nH]c1=O (stereo unspecified)
  5, ., ., 2977, -21, 2.9, -2
- Cc1ccc(N2C(=O)N(CC(=O)Nc3ccc(C)cc3Cl)C(=O)C2C)cc1 (stereo unspecified)
  5, -6, 0, 5967, -20, -2.1, -3
- C/C(=N\NC(=O)c1ccn(C)n1)c1cccc(NC(=O)c2ccncc2)c1
  -6, ., ., 9661, -23, ., .
- Cc1occc1C(=O)NNC(=O)C1CCCC1
  4, 7, 7, 3886, -15, 0.2, 3
- COc1cc(OC)cc(C(=O)Nc2ccc(C(=O)NCC3CCCO3)cc2)c1 (stereo unspecified)
  10, 7, 1, 3652, -14, 1.5, 6
- Cc1cc(C)c(NC(=O)CN2CCOCCOCCOCCOCC2)c(C)c1
  1, -5, -7, 2520, -17, -13, -6
- CCC(=O)c1ccc(OCC(=O)OCC(=O)N2CCCc3ccccc32)cc1
  -9, -1, 5, ., -4, 2.4, 9
- Cc1csc(NC(=O)c2ccc(N3CCCC3=O)cc2)n1
  12, -9, -7, 3126, 56*, -0.1, 0
- CCn1c(COc2ccccc2)nnc1SCC(=O)Nc1ccc(N2CCOCC2)cc1
  5, 15, 9, 4151, -4, 0.0, 3
- O=C1CS/C(=N\NC(=O)c2ccccc2)N1
  2, 5, -3, ., ., -0.4, -4
- CC(OC(=O)c1ccc(Cl)nc1)C(=O)NCc1ccc2c(c1)OCO2 (stereo unspecified)
  -2, -2, 2, 4554, -22, -5.1, -9
- COC(=O)C1=C(C)N(C)C(=O)NC1c1ccc(O)c(OC)c1 (stereo unspecified)
  -7, 1, 10, 5508, -20, 5.2, 17
- COC(=O)NC1CCC(CC2CCC(NC(=O)OC)CC2)CC1 (stereo unspecified)
  1, ., ., 4078, -7, -1.0, -7
- O=C(COC(=O)CSc1ccc([N+](=O)[O-])cc1)NC1CCCCCCC1
  -9, -3, -6, 4855, 10, 2.1, -1
- CC1(C)CC(=O)C/C(=N\NC(=O)c2cccs2)C1
  -20, ., ., 2601, -8, ., .
- CNC(=O)CSc1nnnn1-c1ccc(C)cc1C
  3, 8, 6, 3156, -6, 7.5, 7
- O=c1c2ccccc2nc(SCc2nnc(-c3ccccc3)o2)n1-c1ccccc1
  -1, 10, 8, 11365, -5, 6.5, -2
- COC(=O)c1ccccc1NC(=O)N1c2ccccc2Sc2ccccc21
  -19, -3, 2, 2332, -1, -7.7, 94*
- CCc1cc(=O)oc2c(CNCc3ccc(OC)cc3OC)c(O)c(Cl)cc12
  12, 7, 1, 3561, -9, 0.5, -1
- COc1cccc(NC(=S)N2CCC(N(C)CC3CCCO3)CC2)c1 (stereo unspecified)
  -15, -2, -2, 2385, -6, 1.1, 5
- Cc1ccc[n+](/C(=C\C(=C=[N-])C#N)C(=O)c2ccc(Cl)cc2)c1
  -2, 6, 4, 4418, 7, 0.8, 10
- COc1c(C)cc(Br)cc1C(=O)Nc1ccc(S(N)(=O)=O)cc1
  -4, 10, 11, 2257, -39, 0.3, -3
- Fc1ccccc1-c1nc(NCc2ccccc2)c2ccccc2n1
  3, -9, 7, ., ., -9.2, -31
- Cc1ccc2c(Cl)c(C(=O)N/N=C/c3cccn3C)sc2c1
  5, ., ., 2086, 0, ., .
- COCc1cc(C(C)=O)ccc1OCC(=O)Nc1ccc(NC(C)=O)cc1
  7, -6, 2, 3838, -35, 6.0, 10
- Cc1cccc(OCC(=O)N/N=C\c2cccn2C)c1C
  7, ., ., 5091, -12, ., .
- COc1ccccc1C(=O)NCC(=O)N1CCN(S(=O)(=O)c2ccccc2C(F)(F)F)CC1
  ., 3, 3, 3515, -30, 0.2, 3
- C=CCNc1cc(F)ccc1S(=O)(=O)NCC=C
  ., -1, 0, 4022, -18, 3.1, 0
- c1ccc2c(Cn3ccnc3)cccc2c1
  11, 2, -1, 3806, -11, -4.0, -6
- CCOC(=O)c1cnc2sccn2c1=O
  0, -10, -2, 5970, -31, -3.0, -6
- CC(=O)OCCN1CCN(C(=O)CN2C(=O)NC(c3ccccc3)(c3ccccc3)C2=O)CC1
  9, 1, 11, 3578, -21, -2.9, -2
